# 2A StopGo – lowers the luciferase signal of an FMDV 2A StopGo reporter. human cells with a luciferase reporter of 2A StopGo recoding; control for the full effect not named in the record. Potency, µM (highest dose often 57.9 µM), without a hit: top-dose signal change, negative = less light. 1.2% of 410,000 active. AID 1159524; active = well fitted falling curve with a large enough effect; inconclusive = small, poorly fitted or top-dose-only effect; inactive = no such curve, though single readings can be large or run the other way; tested in HEK293T cells; also: % is scaled to controls: 0 for no effect and ±100 for the full control effect; nearly all actives have a fitted effect of over 45% in size; luciferase light after 4 h
# RE007 growth inh – less growth of the S. pombe RE007 Vpr strain; S. pombe RE007 Vpr strain, BacTiter-Glo ATP luminescence, 24 h; control for the full effect not named in the record; Potency, µM (highest dose often 92.2 µM), without a hit: top-dose activity change, negative = less growth; 0.21% of 360,000 active; active = well fitted falling curve with a large enough effect; inconclusive = small, poorly fitted or top-dose-only effect; inactive = no such curve, though single readings can be large or run the other way;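 also: % is scaled to controls: 0 for no effect and ±100 for the full control effect; nearly all actives have a fitted effect of over 50% in size; the assay follows cell death caused by Vpr and the record does not say whether a fall means rescue or toxicity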
#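 Fission yeast RE007 carrying one integrated HIV-1 vpr copy, seeded at OD 0.01 in PMG+AL medium with 23 nL pinned compound. Grown 24 h at 30 degrees; viability read by BacTiter-Glo luminescence after 5 min.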
# SARS PLP yeast – SARS-CoV PLP inhibition in yeast; Potency, µM (top dose mostly 32.9 µM), without a hit: top-dose activity, positive = growth rescue; S. cerevisiae expressing SARS-CoV PLpro, growth rescue; control for the full effect not named in the record; AID 485353; 0.19% of 330,000 active; active means well fitted rising curve with a large enough effect; inconclusive means small, poorly fitted or top-dose-only effect; inactive means no such curve, though single readings can be large or run the other way; also: 0% is about no effect; nearly all actives have a fitted effect of over 55% in size; growth read by luminescence after 48 h
# Lassa entry inh – inhibitors of Lassa virus binding or cell entry | Lassa virus pseudotype entry inhibition, cell reporter; control for the full effect not named in the record | 1.2% of 300,000 active | Potency, µM (series often up to 37.9 µM), inactives show at the highest dose activity change, negative = inhibition, actives largely listed as inhibitors; active means well fitted inhibition curve with a large enough effect; inconclusive means small, poorly fitted or top-dose-only effect, or effect the other way; inactive means flat fitted curve, though single readings scatter; tested in HEK293 cells; also: % is scaled to controls: 0 for no effect and ±100 for the full control effect; nearly all actives have a fitted effect of over 50% in size; luciferase read-out
# Cruzain noTriton – inhibitors of Trypanosoma cruzi cruzain without detergent; P25779; purified cruzain, Z-FR-AMC fluorescence, no detergent; Potency, µM, for the others: max response, negative = inhibition, hits mostly inhibitors; 2.3% of 200,000 active; AID 1476;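 also: plate controls were enzyme without inhibitor for no effect and buffer without enzyme for full effect; nearly all actives have a fitted effect of over 40% in size; top concentration of the series not given in the record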
# Target sequence (P25779 123-467 limits assumed): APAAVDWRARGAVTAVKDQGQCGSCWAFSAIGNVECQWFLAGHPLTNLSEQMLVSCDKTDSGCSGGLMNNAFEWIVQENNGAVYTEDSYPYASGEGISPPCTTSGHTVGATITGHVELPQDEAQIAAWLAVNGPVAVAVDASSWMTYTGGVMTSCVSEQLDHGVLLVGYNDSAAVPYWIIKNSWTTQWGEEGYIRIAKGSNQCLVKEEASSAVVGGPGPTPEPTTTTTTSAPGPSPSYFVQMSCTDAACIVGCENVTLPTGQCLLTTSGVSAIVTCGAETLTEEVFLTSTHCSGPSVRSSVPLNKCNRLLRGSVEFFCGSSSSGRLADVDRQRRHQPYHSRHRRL
#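 Purified cruzain at 1.5 nM, pre-incubated 15 min with compound at room temperature in 100 mM sodium acetate pH 5.5, 5 mM DTT, 0.00005% Triton X-100. Reaction started with 2 uM Z-FR-AMC; AMC fluorescence increase over 60 s gives rate.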
# Cruzain inh Det – blocks cruzain activity in presence of Triton detergent | purified cruzain, Z-FR-AMC fluorescence, 0.01% Triton | Potency, µM, without a hit: max response, negative = inhibition, usual class: inhibitors | 0.43% of 200,000 active | AID 1478;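 also: plate controls were neutral wells for no effect and buffer without enzyme for full effect; nearly all actives have a fitted effect of over 40% in size; top concentration of the series not given in the record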
#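 Cruzain (1.5 nM) preincubated 15 min at RT with compound in 100 mM sodium acetate pH 5.5, 5 mM DTT, 0.01% Triton X-100. Reaction started with 2 uM Z-FR-AMC; AMC fluorescence (ex 360/em 450 nm) change over 60 s gave rate.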
# Marburg entry inh – blocks Marburg virus binding to or entry into cells; Marburg virus pseudotyped entry inhibition, cell reporter; control for the full effect not named in the record; about a third of the inactives were read at about 46 µM; 1.8% of 300,000 active; Potency, µM (series often up to 37.8 µM), for inactives: at the top dose activity change, negative = inhibition, usual class: inhibitors; active = well fitted inhibition curve with a large enough effect; inconclusive = small, poorly fitted or top-dose-only effect, or effect the other way; inactive = flat fitted curve, though single readings scatter; tested in HEK293 cells; about a fifth of its hits are not listed in these tables; also: % is scaled to controls: 0 for no effect and ±100 for the full control effect; luciferase read-out
# NS1 inh – influenza NS1 inhibition | S. cerevisiae slowed by influenza A NS1, growth recovery by OD600 | Potency, µM (series often up to 46.1 µM), without a hit: at the top dose activity, positive = more growth | 0.4% of 270,000 active | AID 2326; active means well fitted rising curve with a large enough effect; inconclusive means small, poorly fitted or top-dose-only effect; inactive means no such curve, though single readings can be large or run the other way; also: nearly all actives have a fitted effect of over 50% in size
#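 A cell-based growth assay was used: compounds that relieve NS1-induced slow growth of budding yeast raise OD600. Assay medium was yeast nitrogen base with ammonium sulphate and -URA supplement, pH 6.0, with 2% galactose.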
# Starred values were filed as active, the others as inactive; ? = inconclusive; · = no result given; [ ] = another dose, or the depositor's remark. Unless noted, calls follow the shape of the dose curve; as a rule, active = well fitted curve in the direction sought with a large enough effect; inconclusive = small, poorly fitted or top-dose-only effect, or another doubt; inactive = no such curve, though single readings can be large; an effect the other way counts as inactive or inconclusive. Potency is read from the fitted curve at half-maximal effect.
SMILES,2A StopGo,RE007 growth inh,SARS PLP yeast,Lassa entry inh,Cruzain noTriton,Cruzain inh Det,Marburg entry inh,NS1 inh
Cc1ccc(CCNC(=O)CS(=O)Cc2nc(-c3cccc(C)c3)oc2C)cc1 (stereo not drawn),0.0%,-4.8%,3.7%,·,?,-4.9%,·,-26.8%
N#Cc1ccc(NS(=O)(=O)c2ccc(-c3cnc(C4CC4)o3)cc2)cc1,39.5%[activator],·,·,?,-15.4%,-9.2%,·,·
Cc1ccc(C)n1-c1ccc(N2CCOCC2)c([N+](=O)[O-])c1,-9.7%,1.3%,0.0%,·,·,·,·,?
CCN(CC)c1ccc(NC(=O)COc2ccccc2C)cc1S(=O)(=O)Nc1ccccc1OC,-8.5%,-18.3%,6.7%,?,-26.3%,0.8%,?,9.3%
CC1CCN(S(=O)(=O)c2ccc(NC(=O)CN3CCN(C)CC3)cc2)CC1,0.0%,14.5%,2.1%,-5.8%,7.8%,5.0%,?,0.7%
CCN(c1ccccc1)S(=O)(=O)c1cccc(C(=O)NCC(c2ccco2)N2CCCCC2)c1 (stereo not drawn),-9.7%,-6.7%,·,-27.9%,·,·,?,·
CC(C)C[C@H](NC(=O)c1cc2cc(Cl)ccc2n1C)C(=O)N1CCC(C(=O)O)CC1,-22.1%,2.6%,-0.4%,-22.1%[46.1 µM],·,·,0.0%[46.1 µM],3.4%
COc1ccc(Nc2ncc3c(n2)CC(c2ccccc2)CC3=O)cc1 (stereo not drawn),-15.8%,19.0%,-1.6%,0.92µM*,14.0%,-7.9%,3.2%,-8.6%
CSC(=NS(=O)(=O)c1ccc(N)cc1)NS(=O)(=O)c1cccs1,-5.7%,-0.5%,·,-24.3%[46.1 µM],·,·,8.9%[46.1 µM],·
Cc1ccc(-c2nn(-c3ccccc3)cc2/C=N/n2c(-c3ccncc3)n[nH]c2=S)cc1,19.5%,-1.0%,-4.4%,15.6%,·,·,0.0%[14.2 µM],5.6%
Cc1cc(NC(=O)CSCC(=O)N2CCN(c3cccc(C(F)(F)F)c3)CC2)no1,-6.7%,11.0%,4.9%,17.2%,·,·,9.0%,·
CCN(CC)C(=O)C(=O)Nc1ccc(Oc2ccccc2)cc1,0.0%,-2.4%,-2.0%,6.0%,·,·,16.8%[46.1 µM],-1.0%
COC(=O)c1nc2nc(-c3cccs3)cc(C(F)(F)F)n2n1,-5.9%,1.2%,-8.6%,4.7%,?,-2.5%,-1.2%,-4.5%
COc1ccc(CNC(=O)c2cc(S(=O)(=O)N3CCOCC3)cn2C)cc1,-5.4%,14.4%,2.2%,·,·,·,·,6.4%
CC(C)(C)C1CCC(OC(=O)CN2CCOCC2)CC1 (stereo not drawn),28.2%,-15.3%,-0.1%,20.8%,-3.8%,-2.7%,3.8%,-5.2%
c1ccc(-c2csc(N3CCN(c4ccccn4)CC3)n2)cc1,-21.9%,-12.0%,-13.5%,-2.9%,-0.4%,1.5%,16.6%,-70.8%
CN(CC(=O)Nc1ccc(F)cc1)CC(=O)N1CCCC1,-3.5%,17.0%,-5.2%,11.3%,·,·,?,·
O=C(CCC1CCCN(C(=O)c2ccc3c(c2)OCO3)C1)N1CCN(c2ccccn2)CC1 (stereo not drawn),-1.2%,-0.3%,1.7%,-25.9%[46.1 µM],·,·,?,-2.8%
CCCc1nc(S(=O)(=O)Cc2ccc(Cl)cc2Cl)n[nH]1,0.5%,1.4%,-0.6%,-36.5%[14.3 µM],-17.9%,2.0%,8.1%,5.2%
COc1cc(-c2nn3c(C4CCCCC4)nnc3s2)cc(OC)c1OC,-23.8%,-13.0%,8.0%,?,26.4%,-3.2%,-8.3%,5.1%
CC1CCN(CC(O)COc2ccc(-c3ccccc3)cc2)CC1 (stereo not drawn),-11.6%,-11.5%,-2.7%,·,·,·,·,1.6%
CC(C)CCn1nnnc1C(c1ccc(N(C)C)cc1)N1CCN(C(=O)c2ccco2)CC1 (stereo not drawn),5.6%,3.5%,-16.9%,?,?,6.0%,?,15.7%
Cc1nn(C(=O)CCC(=O)NCc2ccc(OC(C)C)cc2)c2ccccc12,8.3%,11.0%,?,·,·,·,·,-14.2%
COc1ccc(Cl)cc1NC(=O)CSc1nnc(COc2ccccc2)n1N,-9.9%,6.8%,-3.1%,0.1%,6.1%,-4.1%,?,-17.1%
Cc1nc(C)c(-c2ccc(SCC(=O)Nc3ccccc3F)nn2)s1,-23.1%,·,·,-1.7%[46.1 µM],-4.8%,-15.0%,·,·
Cc1ccc(N2C(=O)C3CC(c4ccccc4)=C4C5C=CC(C6C(=O)N(c7ccc(C)cc7C)C(=O)C56)C4C3C2=O)c(C)c1 (stereo not drawn),15.9%,39.7%,3.4%,29.8%,9.2%,3.9%,?,?
CCOc1ccc(CCNC(=O)CCS(=O)(=O)c2ccc(Cl)cc2)cc1OCC,-9.4%,-14.5%,-2.5%,-15.7%,·,·,1.5%,4.9%
COc1ccc(CCNC(=O)COC(=O)Cc2ccccc2F)cc1,-12.7%,-16.8%,?,20.0%[46.1 µM],·,·,2.6%[46.1 µM],·
CCCOc1ccccc1N1C(=O)CC(N2CCOCC2)C1=O (stereo not drawn),5.3%,6.0%,-32.9%,2.7%,-8.5%,-0.4%,7.7%,-5.7%
CCCC(=O)Nc1ccccc1NC(=O)c1ccc2c(c1)OCO2,-10.4%,2.7%,20.6%,·,·,·,·,-12.5%
Cc1ccc(/C=N/NC(=O)c2nnn(-c3nonc3N)c2C(C)C)o1,-8.9%,1.8%,-1.4%,·,·,·,·,0.3%
CC(CCO)Nc1nc2c(c(=O)n(C)c(=O)n2C)n1Cc1cccc(Br)c1 (stereo not drawn),·,-6.5%,-5.1%,18.0%,-2.8%,-1.1%,-33.6%,4.6%
CN1C(=O)/C(=C\c2ccccc2F)Sc2ccc(C(=O)NC3CCN(Cc4ccccc4)CC3)cc21,?,-12.4%,-2.3%,·,·,·,·,16.0%
CCOC(=O)C1=C(c2cccc(F)c2)NC(=S)NC1C (stereo not drawn),-14.5%,8.2%,4.9%,-3.5%,-0.7%,5.8%,28.1%[46.1 µM],18.0%
Cc1ccc(-c2nnn(CC(=O)N(c3ccccc3)C(C(=O)NC(C)(C)C)c3cccs3)n2)o1 (stereo not drawn),2.7%,0.4%,-17.3%,1.9%,6.31µM*,0.4%,6.5%,1.1%
Cc1ccc(CN2CCN(Cc3ccccc3-c3ccco3)CC2CCO)o1 (stereo not drawn),-18.0%,-4.1%,0.1%,-21.0%[46.1 µM],·,·,?,0.3%
COc1ccccc1CCNC(=O)c1cc(C2CC2)nc2c1cnn2C(C)C,-27.5%,-13.9%,-2.5%,?,·,·,?,·
Cc1ccc(C)c(N=C2CCCN2Cc2ccccc2)c1C#N,·,6.6%,-1.8%,-16.7%,0.7%,-3.4%,?,-6.6%
CCOC(=O)c1ccc(Nc2ccc(-c3ccc(OC)c(OC)c3)nn2)cc1,-24.3%,-5.3%,-0.9%,?,?,4.0%,?,-6.2%
COc1cccc(-c2nnc(-c3ccc(C(F)(F)F)cc3)o2)c1,56.9%[activator],9.9%,-13.0%,16.4%,-2.5%,-11.4%,9.5%,1.3%
O=C1NC(=O)/C(=C\c2cn(Cc3ccccc3F)c3ccccc23)N1,-2.4%,5.6%,-0.1%,·,·,·,?,·
Cc1cc(C(F)(F)F)cc(NNC(=O)NC(=O)c2ccc(Cl)cc2)n1,-1.4%,-11.4%,-3.0%,9.6%,·,·,?,4.7%
COc1cc(C2CC(=O)Oc3cc4c(cc32)OCO4)cc(OC)c1OC (stereo not drawn),-13.3%,11.4%,13.9%,·,2.4%,-3.4%,·,·
Cc1nc(SCC(=O)Nc2cc(C)on2)c2c3c(sc2n1)CCCC3,8.9%,12.6%,3.0%,?,?,4.3%,-27.7%,?
COc1ccc(CCNC(=O)c2cc(-c3ccccc3)c(N3CCOCC3)s2)c(OC)c1OC,-25.1%,0.2%,-7.2%,·,·,·,·,29.1%
CNC(=O)COC(=O)c1ccc2c(c1)S(=O)(=O)c1ccccc1C2=O,4.2%,19.5%,-1.6%,·,·,·,?,5.8%
Cc1cc(Cl)ccc1OCCCC(=O)Nc1cccnc1,?,21.7%,-10.7%,8.9%,0.9%,-2.6%,13.2%[46.1 µM],-134.7%
COc1cc2c(cc1NC(=O)C(C)N1CCN(S(=O)(=O)c3ccccc3[N+](=O)[O-])CC1)oc1ccccc12 (stereo not drawn),23.1%,8.2%,-2.0%,-6.9%,0.794µM*,2.6%,?,1.2%
Cc1c(Cl)c(C(=O)NC2C3CC4CC(C3)CC2C4)nn1C (stereo not drawn),-1.8%,-28.5%,-15.4%,-5.0%,-1.3%,-0.5%,?,-22.7%
Cc1ccc(C(C(=O)NCCc2ccccc2)N(C(=O)c2csnn2)C2CC2)cc1 (stereo not drawn),10.5%,-5.8%,2.6%,?,·,·,?,-3.7%
CNC(=O)COC(=O)CCC(=O)c1cccs1,-7.6%,2.1%,0.0%,·,·,·,·,0.7%
Cc1nc2ccccc2n1Cc1ccccc1Br,?,-15.5%,2.5%,-26.3%[46.1 µM],·,·,?,-2.6%
CCOC(=O)/C(C#N)=C(C)/C=C1\Sc2ccccc2N1CC,12.2%,1.6%,0.9%,19.6%,-0.7%,-21.0%,?,4.2%
N[C@@]12CCc3nonc3[C@]1(O)CC(c1ccccc1)=[N+]2[O-],-17.8%,-6.4%,6.6%,-1.8%,6.3%,0.1%,?,-4.3%
CCCCc1nnc(SCC(=O)Nc2nccs2)n1CC,-14.2%,7.3%,-2.5%,·,·,·,·,1.2%
Cc1ccc(C(=O)C2CCN(CC(=O)Nc3ccc4c(c3)OCCO4)CC2)cc1,-6.0%,-1.6%,7.0%,-4.8%,?,2.3%,-20.9%,-6.4%
Clc1c(-c2nnc3n2CCC3)sc2ccccc12,48.7%[activator],?,-10.2%,8.3%,-12.3%,3.7%,6.0%,-4.2%
Cc1coc2cc3oc(=O)c(CC(=O)NCCc4ccccc4F)c(C)c3cc12,-8.7%,·,·,-8.1%[46.1 µM],7.2%,-0.3%,9.4%[46.1 µM],·
CC(Sc1nnc(-c2ccco2)n1C)C(=O)N(C)C1CCCCC1 (stereo not drawn),-17.8%,1.2%,-10.1%,7.1%,·,·,-8.2%,·
